# Anthrax LT inh – anthrax lethal toxin internalization inhibition; Cells, anthrax lethal toxin internalization, FRET ratio (460/530); Potency, µM (titrated, usually from 40 µM), inactives show at the highest dose activity change, negative = inhibition, most hits filed as inhibitors; 70,000 compounds, 0.67% hits; AID 912; active = well fitted falling ratio curve with the 530 nm signal flat; inconclusive = other ratio curves, or a change in one channel alone; inactive = flat curves in the ratio and both channels; the % refers to the ratio; further: on the % scale 0 is the no-effect control and ±100 the full control effect; nearly all actives have a fitted effect of over 50% in size; tested in ME-180 cells; beta-lactamase reporter
# Prx2 Sm inh – inhibitors of Schistosoma mansoni peroxiredoxin 2 | S. mansoni Prx2 activity coupled to TGR/GSH (TGR is thioredoxin glutathione reductase), NADPH fluorescence loss, qHTS; some inactives read as strong as hits | Potency, µM | 65,000 compounds, 0.07% hits | AID 448; active means full or partial inhibition curve with a strong effect at the top dose; inconclusive means weaker partial or single-point curve; inactive means no accepted curve; further: series up to 57 µM; many of its hits are not listed in these tables
#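 Enzyme mix: 100 uM NADPH, 25 nM TGR, 700 uM GSH, 50 nM Prx2 in 100 mM phosphate pH 7.4, 10 mM EDTA, 0.01% Tween-20. 15 min RT with compound; NADPH/GSH added, H2O2 starts reaction; NADPH fluorescence read 8 min.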
# Active calls of the source: *; ? = inconclusive; . = no result given; & = joins results of further samples; [ ] = dose if it differs, or a comment. Potency means the concentration at half of the fitted maximal effect. This is a subset, so the mix of outcomes need not match the whole.
SMILES	Prx2 Sm inh	Anthrax LT inh
CCCC(=O)Nc1cc2c(cc1C(=O)c1ccccc1)OCCO2	>57	-4%
CCC(CCC(=O)Nc1ccn(-c2ccccc2)n1)C(=O)O (stereo not given)	>57	0%
CCc1cc(C(=O)COc2ccccc2F)c(O)cc1O	>57	?
Cc1cc(C)n2nc[n+](C)c2n1	>57	3%
CCn1c(CCNC(=O)c2cccs2)nnc1SCC(=O)NC1CCCCC1	>57	-1%
Cc1cccc(NC(=O)CCNS(=O)(=O)c2cccc3nsnc23)c1	>57	-14%
CN1/C(=C\C(=O)COC(=O)C2COc3ccccc3O2)C(C)(C)c2ccccc21 (stereo not given)	>57	17%
O=C(c1ccccc1CCc1ccccc1)N1CCOCC1	>57	-8%
Cc1ccc(-c2nnn(CC(=O)N(Cc3cccs3)C(C(=O)NC(C)(C)C)c3ccco3)n2)o1 (stereo not given)	.	?
Cc1cc(C)c(NC(=O)CCCOC(=O)C2=COCCO2)c(C)c1	>57	?
COc1ccc([C@@H]2OC[C@]3(COC(C)=O)[C@H](C)C=C(C)[C@@H]2[C@H]3C)cc1	>57	?
O=S(=O)(c1cccc(F)c1)N1CCN(Cc2ccc3c(c2)OCO3)CC1	>57	-8%
OC(COc1ccc2c(c1)OCO2)CN1CCc2ccccc2C1 (stereo not given)	>57	?
O=C(O)C12CC3CC(C1)CC(n1cnc(Cl)n1)(C3)C2	>57	-5%
CN(Cc1ccccc1)C(=O)c1ccccc1NC(=O)c1ccco1	>57	-9%
CC(C)(Oc1ccc(Cl)cc1)C(=O)OCC(=O)N1CCCC1	>57	2%
CCOC(=O)c1sc(=S)n(CC)c1N	>57	-7%
Cn1c(=O)c2ncn(CC(=O)Nc3ccc4c5c(cccc35)CC4)c2n(C)c1=O	>57	4%
CC(=O)C1=C(O)C(=O)N(Cc2ccco2)C1c1ccc(F)cc1 (stereo not given)	>57	-2%
Nc1cccc2cc(S(=O)(=O)Nc3ccc(C(=O)O)cc3)ccc12	>57	-3%[8 µM]
O=C(Nc1cnc2ccccc2c1)N1CCCCC1	.	3%
CCOc1ccc(-c2cc(CCCC(=O)NCCc3ccc(OC)c(OC)c3OC)no2)cc1	>57	3%
Cc1nc(SCC(=O)Nc2c(C)n(C)n(-c3ccccc3)c2=O)n[nH]1	>57	-12%
COC(=O)C1=C(CN2CCCc3ccccc32)NC(=O)NC1c1ccc(F)cc1 (stereo not given)	>57	-10%
Cc1ccc(-c2nc(CS(=O)(=O)CC(=O)NC3CCCCC3C)c(C)o2)cc1 (stereo not given)	>57	-10%

# Overlap with the part before: 2 compounds, followed by the next part.
SMILES	Prx2 Sm inh	Anthrax LT inh
COC(=O)C1=C(CN2CCCc3ccccc32)NC(=O)NC1c1ccc(F)cc1 (stereo not given)	>57	-10%
Cc1ccc(-c2nc(CS(=O)(=O)CC(=O)NC3CCCCC3C)c(C)o2)cc1 (stereo not given)	>57	-10%
CC(=O)OCCCCON1C(=O)c2ccccc2C1=O	>57	4%
O=C(CCS(=O)NCc1ccccc1)NCc1ccccc1 (stereo not given)	>57	-7%
Cc1ccccc1NC(=O)CSc1nc(Nc2ccccc2)nc(N2CCOCC2)n1	>57	-6%
COc1ccc(NC(=O)C2CCCN(c3c4c(nc5ncnn35)CCC4)C2)cc1OC (stereo not given)	>57	3%
O=S(=O)(/N=C/c1ccccc1O)c1cccs1	>57	0%
COC(=O)CSc1nnc([C@H](Cc2ccccc2)NC(=O)OC(C)(C)C)o1	>57	?
CCc1c(C#N)c(N)nc(SCC(=O)OCc2ccccc2)c1C#N	.	?
CCN(CC)CCN=Cc1c(O)n(C2CCCCCC2)c(=O)[nH]c1=O	>57	.
COc1ccc(S(=O)(=O)Nc2ccc3c(c2)OCCO3)cc1Cl	>57	3%
Cc1cc(C)n2nc(S(=O)(=O)NCCc3ccccc3)nc2n1	>57	-10%
Cc1ccc(NC(=O)N(C2=NCC(C)S2)c2ccccc2)cc1 (stereo not given)	>57	-20%
COc1ccc(S(=O)(=O)NCc2ccco2)cc1-c1nnc2c3ccccc3c(C)nn12	>57	2%
O=C(Nc1ccc(Cl)cn1)c1cccc(F)c1	.	?
Cc1ccc(-c2nnnn2CS(=O)(=O)c2ccccc2)cc1	>57	?
CC(C)NC(=O)N1CCC2(CC1)CCN(C(=O)c1cnccn1)CC2	>57	?
CC(C)(C)NC(=O)CSc1nnc(-c2ccncc2)n1Cc1ccccc1	>57	-5%
CCN(CC)c1ccc(/C=N/NC(=O)c2ccc(O)cc2)cc1	.	?
COc1ccc(CCNc2oc(Cc3cccc4ccccc34)nc2C#N)cc1OC	>57	-19%
COc1ccccc1-c1nnc(NC(=O)c2ccc(S(=O)(=O)N(C)Cc3ccccc3)cc2)o1	>57	-1%
Cc1c(C(=O)N2CCOCC2)[nH]c2ccc(OCc3ccccc3)cc12	>57	-1%
CCCOc1ccccc1Nc1nnc(C)c(=O)[nH]1	>57	6%
O=C(COC(=O)C1CC2C=CC1C2)Nc1ccc2c(c1)OC(F)(F)O2 (stereo not given)	>57	-18%
CCOC(=O)N1CCN(C(=O)c2ccc(CS(=O)(=O)c3c(Cl)cccc3Cl)o2)CC1	>57	?
COc1ccc(NC(=O)N2CCC3(CC2)CCN(C(=O)c2cccc(F)c2)CC3)cc1	>57	-24%
C=CCc1cccc(C2C(C)CCC3C(=O)N4C(CCC(C)C4c4cccc(CC=C)c4)C(=O)N32)c1 (stereo not given)	.	-25%[8 µM]

SMILES	Prx2 Sm inh	Anthrax LT inh
Cc1nnc(NC(=O)CSc2ccccn2)s1	>57	10%
O=C1[C@H]2[C@H]3[C@H](O)[C@H](O)C/C(=N/OC[C@@H](O)COCc4ccco4)[C@H]3CC[C@@H]2C(=O)N1Cc1ccc2c(c1)OCO2	.	1%[1.6 µM]
CCOc1ccccc1NC(=O)CSc1nnc(CNC(=O)COc2ccc(Cl)cc2)o1	>57	-8%
CCOC(=O)C(C)Sc1nc2c([nH]c3ccccc32)c(=O)n1C (stereo not given)	>57	12%
Cc1cccc(-n2c(=O)[nH]c3c(C(N)=O)nc(-c4ccccc4Cl)nc32)c1	>57	?
CC(=O)OCC1OC(C#Cc2ccc(C(C)(C)C)cc2)C=CC1OC(C)=O (stereo not given)	.	-11%[8 µM]
CCCCC(=O)Nc1ccc(N2CCN(S(C)(=O)=O)CC2)cc1	>57	-2%
COc1cc(OC)cc(C(=O)Nc2ccc(-n3cnnn3)c(C)c2)c1	>57	-4%
O=C(CN1C(=O)NC(Cc2ccccc2)C1=O)Nc1ccccc1 (stereo not given)	>57	.
CCN(CC)S(=O)(=O)c1cccc(-c2nnc(SCC(=O)NC)n2CCc2ccccc2)c1	>57	2%
Cn1c(C(=O)NCCCN2CCN(c3ccccc3F)CC2)cc2c(=O)[nH]c3ccccc3c21	>57	14%
COc1ccc(N(CC(=O)NCc2ccc3c(c2)OCO3)S(=O)(=O)c2c(C)nn(C)c2C)cc1	>57	-5%
CC(=O)NNc1ccccc1	.	7%
Cc1ccc(C)c(N2CCN(C(=O)CC3Sc4ccccc4NC3=O)CC2)c1 (stereo not given)	.	?
Cc1csc(SCC(=O)c2ccc(S(=O)(=O)N3CCOCC3)cc2)n1	>57	-6%
O=C(NCCSc1ccccc1)c1ccco1	>57	-7%
CCN(CC(=O)Nc1ccccc1C(=O)OC)S(=O)(=O)c1ccc(OC)cc1	>57	-19%
CCOC(=O)C1=C(C)Nc2ccccc2N=C1NC(=O)c1cccc(S(=O)(=O)N(C)C)c1	>57	4%
O=C1c2cccc(O)c2C(=O)c2c(O)cccc21	.	-7%
CCCNC(=O)c1c(N)n(-c2cc(OC)cc(OC)c2)c2nc3ccccc3nc12	>57	?
CNc1nnc(-c2ccncc2)s1	>57	2%
CCCc1cc(=O)[nH]c(SCC(=O)N(C)C2CCS(=O)(=O)C2)n1 (stereo not given)	>57	-17%
COCC(=O)N(Cc1cc2ccc(C)cc2[nH]c1=O)c1ccc(OC)cc1	>57	?
COc1ccc(OC)c2[nH]c(=O)c(CCNS(=O)(=O)c3ccc(Cl)cc3)cc12	>57	-1%
COc1ccc(-c2nc(C(=O)N3CCN(C)CC3)sc2-c2ccc(OC)cc2)cc1	>57	?

SMILES	Prx2 Sm inh	Anthrax LT inh
O=C(CSc1nnc(Cc2ccccc2)o1)NC1CCCCC1	>57	3%
COC(=O)c1cnn2c3c(c(C)nc12)CCCC3	>57	4%
CC(NC(=O)c1cccc(F)c1)C(c1cccs1)N1CCN(C)CC1 (stereo not given)	>57	2%
COc1ccccc1CN1CC[C@@]2(CCCN(C(=O)c3cccc(F)c3)C2)C1	>57	-2%
Cc1ccc(N(CC(=O)NC2CCCCCC2)S(=O)(=O)c2c(C)nn(C)c2C)cc1	>57	2%
CN1CCC2(CC1)CCN(C(=O)Oc1ccccc1)CC2	>57	-20%
O=C1NCN(c2ccccc2)C12CCNCC2	>57	-18%
C/C(NC1CCCCC1)=C(/C#N)C(=O)NCCN1CCOCC1	>57	?
CCc1ccc2[nH]c(=O)c(CN(CCCN3CCOCC3)C(=O)Nc3ccc(F)cc3)cc2c1	>57	-18%
Cn1ccnc1SCC(=O)Nc1ccc2c(c1)COC2=O	>57	7%
O=C1CC(N2CCN(C(c3ccccc3)c3ccccc3)CC2)C(=O)N1 (stereo not given)	.	17%
N#Cc1ccc(C(c2nnnn2CCc2ccccc2)N2CCCCCC2)cc1 (stereo not given)	>57	?
O=C(Nc1nc2c(s1)CCCC2)C1CCCN1C(=O)c1cccs1 (stereo not given)	>57	-4%
COc1ccc2cc(CCNC(=O)c3c(-c4ccccc4Cl)noc3C)c(=O)[nH]c2c1	>57	-15%
CCOc1cccc(OCCOCCN(C)Cc2ccccc2)c1	.	-10%
CCOC(=O)CN1CC23C=CC(O2)C(C(=O)Nc2ccc(OC)cc2OC)C3C1=O (stereo not given)	>57	-4%
CCCNc1ncnc2nc[nH]c12	>57	4%
Cc1ccc2c(C(=O)CN3CCCCC3CCO)c(C)[nH]c2c1 (stereo not given)	>57	.
CSc1nc2c(c(=O)[nH]1)C(c1cccs1)C1=C(CCCC1=O)N2 (stereo not given)	>57	9%
O=C(NCc1ccccn1)c1ccc(N2CCCC2=O)cc1	>57	?
CC1CCN(C(=O)CN(C2CCCCC2)S(C)(=O)=O)CC1	>57	26%
Cc1ccc(C(=O)NCc2ccc(Cl)c(Cl)c2)o1	.	-23%
CCN(CC)c1ccc2cc(C(=O)Nc3cccnc3N3CCOCC3)c(=O)oc2c1	>57	-7%
Cc1cccnc1	.	4%
Cc1ccc(S(=O)(=O)NC(CC(=O)NCc2ccco2)c2ccco2)cc1 (stereo not given)	>57	-12%

# 4 compounds already listed, sorted by number of heavy atoms, low to high:
SMILES	Prx2 Sm inh	Anthrax LT inh
COC(=O)c1cnn2c3c(c(C)nc12)CCCC3	>57	4%
O=C(Nc1nc2c(s1)CCCC2)C1CCCN1C(=O)c1cccs1 (stereo not given)	>57	-4%
N#Cc1ccc(C(c2nnnn2CCc2ccccc2)N2CCCCCC2)cc1 (stereo not given)	>57	?
CCOC(=O)CN1CC23C=CC(O2)C(C(=O)Nc2ccc(OC)cc2OC)C3C1=O (stereo not given)	>57	-4%

# Further entries follow.
SMILES	Prx2 Sm inh	Anthrax LT inh
CCCCCCCCCOc1ccc2[nH]cc(CCN)c2c1	>57	?
O=C(NCc1ccccc1)NC1(C(=O)N2CCN(c3ncccn3)CC2)CCCCC1	>57	?
CCCCOC(=O)Nc1nc(CC(=O)OCC)cs1	.	4%
COC(=O)c1ccccc1N(Cc1ccccc1)S(C)(=O)=O	.	-8%
c1ccc(-c2onc3cc4c(cc23)OCCO4)cc1	>57	?
COCCCNC(=O)c1ccc(CNS(=O)(=O)c2ccc(NC(C)=O)cc2)cc1	>57	2%
NS(=O)(=O)c1ccc(CNC(=O)C2CCCCC2)cc1	>57	1%
COC(=O)c1ccc(CSc2nncn2C)cc1	>57	3%
CCCCC(CC)COCCCN (stereo not given)	.	-6%
COc1cc(Cc2cnc(N)nc2N)cc(OC)c1OC	>57&>57&>57&>57	?
C=CCSc1nnc(NC(=O)CSc2nc(CCC)cc(=O)[nH]2)s1	>57	?
COC(=O)c1ccc(NC(=O)CCN2CCN(c3ccccc3)CC2)cc1	>57	6%
COc1ccc2nc(N3CCCC(O)C3)c(C#N)cc2c1 (stereo not given)	>57	23%
CC(=O)C1=C(C)NC(=O)NC1c1cc(Br)ccc1OCC(N)=O (stereo not given)	>57	-3%
COc1ccc(N2CCN(C3CC(=O)N(C)C3=O)CC2)cc1 (stereo not given)	.	-1%
CN1CCN(c2ncc3ncc(=O)n(Cc4cccs4)c3n2)CC1	>57	-10%
Cc1cc(C)cc(NC(=O)CCN2CC(C)OC(C)C2)c1 (stereo not given)	>57	-12%
CC1=C(C)[N+](=O)C2CCCCC2N1[O-] (stereo not given)	.	-13%
CCNc1cc2n(c(=O)n1)CCc1cc(OC)c(OC)cc1-2	>57	-14%
